# Screening data: PubChem BioAssay, several laboratories
# MT1-MMP act inh = MT1-MMP (human) activation inhibition; HT1080 RFP-PRO-GFP cells, GFP/RFP ratio fluorescence, overnight; percent of plate control window, DMSO zero; 0.061% of 360,000 active; GFP/RFP ratio change, % at 20 µM; AID 651647;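 active = GFP/RFP ratio change of at least 30% with cell ATP level not reduced by more than half and red fluorescence within 50% of control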; note: strong numbers were not always called active
#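 Material – HT1080 RFP-PRO-GFP cells · Control set – DMSO wells and RFP-L50D-GFP cells · Incubation – overnight cell settling, then overnight compound exposure, 37 °C, 5% CO2 · Compound dosing – single-point 20 µM compound, 1% DMSO · Read-out – GFP/RFP fluorescence ratio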
# eIF4H FP inh = inhibitors of RNA binding by human eIF4H | AID 2012 | Q15056 | eIF4H fluorescence polarization binding assay | 0.94% of 290,000 active | inhibition, % at 35 µM;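 active = 50% or more with normal probe brightness, or confirmed in later tests; inconclusive = above 50% with abnormal brightness, or retests that disagree; inactive = below 50% or failed in later tests; about a fifth of its hits are not listed in these tables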;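 note: calls also rest on retests at 20 µM and on dose response follow-up; 0% = protein and probe with vehicle and 100% = probe without protein; strong numbers were not always called active; many hits fall short of the cut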
# Env fusion inh = HIV envelope-mediated fusion inhibition. 1.1% of 360,000 active. inhibition, % at 12.3 µM. AID 651610. HeLa-JRFL Env/CEM21 cell fusion, luciferase;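 active = mean replicate inhibition score of at least 50 and every replicate individually at or above 50; inconclusive = only one of the two criteria met; inactive = mean below 50 and not all replicates reaching 50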;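 note: 0% = plate neutral controls and 100% = maraviroc near 300 nM; one replicate is shown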
# PABP polyA inh = blocks human PABP binding to poly(A) RNA; inhibition, % at 35 µM; P11940; fluorescence polarization; 1% of 290,000 active; AID 2014;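 active = 50% or more with normal probe brightness, or confirmed in later tests; inconclusive = above 50% with abnormal brightness, or retests that disagree; inactive = below 50% or failed in later tests; about a fifth of its hits are not listed in these tables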;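 note: calls also rest on retests at 20 µM and on dose response follow-up; controls were probe without protein and protein plus probe with vehicle; some compounds called inactive have numbers as strong as hits; many hits fall short of the cut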
# Target sequence (P11940 whole entry, looked up): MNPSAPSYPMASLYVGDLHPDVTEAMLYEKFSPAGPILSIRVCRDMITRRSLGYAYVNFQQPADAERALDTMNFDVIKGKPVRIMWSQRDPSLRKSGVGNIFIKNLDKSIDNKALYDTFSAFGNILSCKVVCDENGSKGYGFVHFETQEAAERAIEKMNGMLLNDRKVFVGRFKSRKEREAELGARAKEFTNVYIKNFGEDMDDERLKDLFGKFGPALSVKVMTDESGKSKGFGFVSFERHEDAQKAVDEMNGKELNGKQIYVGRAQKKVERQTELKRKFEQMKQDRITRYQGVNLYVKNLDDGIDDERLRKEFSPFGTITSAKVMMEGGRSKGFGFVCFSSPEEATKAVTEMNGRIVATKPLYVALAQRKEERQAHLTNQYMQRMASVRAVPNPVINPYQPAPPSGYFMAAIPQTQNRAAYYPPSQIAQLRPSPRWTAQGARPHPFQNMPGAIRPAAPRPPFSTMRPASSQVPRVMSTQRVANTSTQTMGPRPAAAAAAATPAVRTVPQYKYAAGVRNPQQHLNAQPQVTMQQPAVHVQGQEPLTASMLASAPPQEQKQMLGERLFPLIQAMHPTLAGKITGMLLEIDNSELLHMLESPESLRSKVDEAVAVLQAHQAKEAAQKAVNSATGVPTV
# CSC inhib = blocks cancer stem cells. 1.1% of 300,000 active. AID 2717. inhibition, % at 7.5 µM. cancer stem cell-like cells viability, luminescence;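 active = mean at 75% or more and at least half the replicates too; inconclusive = mean and replicates disagree; tested in HMLE shEcad cells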;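 note: 0% = median of negative and 100% = median of positive control wells; the first replicate is given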
# Rce1 inh = inhibitors of yeast Ras-converting enzyme. yeast membranes, quenched prenylated peptide cleavage fluorescence. calls only. 0.27% of 290,000 active. AID 2563;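 active = fall in fluorescence gain of 50% or more versus controls, with final raw signal at or below 3038400; inconclusive = same 50% fall but final raw signal above 3038400; inactive = fall in fluorescence gain under 50%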;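 note: plate controls were neutral control wells for no effect and wells lacking membranes for full effect; tested at 10 µM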
# Yeast UUG start = modulators of start codon recognition fidelity in yeast; 0.13% of 350,000 active; S. cerevisiae UUG-firefly luciferase reporter, luminescence/redox ratio; activity score, % at 18.7 µM; AID 602363;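 active = replicate mean at a twofold rise or more, about +100% in these data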;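 note: firefly luciferase made from a UUG start codon reports start codon fidelity; reporter light over untreated wells divided by growth signal over untreated wells; some hits fall short of that in this replicate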
# eIF4H FP inh retest = second read-out of eIF4H FP inh, no call of its own (marks repeat the call); inhibition, %; compound at 20 µM; confirmation average;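 mean of two retest wells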
# PABP polyA inh retest = further read-out of PABP polyA inh, marked with its call; inhibition, %; compound at 20 µM; confirmation repeats;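 mean of two retest wells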
# MT1-MMP act inh RFP = recorded beside MT1-MMP act inh, whose call it bears; RFP signal change, %; measured here: RFP expression control read;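 0 = vehicle wells; hits needed this value within 50% of zero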
# * hit, by the source's call; i = inactive; ? = inconclusive; / = no result given; & = joins results of further samples; [ ] = remark or other dose. This is a random part of the collection; about 2.9% have a hit in one of these screens.
SMILES,MT1-MMP act inh,MT1-MMP act inh RFP,eIF4H FP inh,Env fusion inh,PABP polyA inh,CSC inhib,Rce1 inh,Yeast UUG start,others
COc1cccc(CNC(=S)Nc2cccc(Cl)c2C)c1,-3,0,-5,-378,-8,-4,i,-30,
CCN(CC)c1ccc2cc(C(C)=O)c(=O)oc2c1,-1,8,?,-47,?,-2,i,-9,
COc1cccc(N/C(SC)=C(/C#N)C(N)=O)c1,-6,-6,-3,-27,-6,9,i,-2,
COc1ccc(OC)c(/C=N\NC(=O)CC(=O)NCCc2ccccc2)c1,3,6,2,-24,1,12,i,/,
Cc1noc(C)c1CC(=O)NC1CC(C)(C)Cc2c1cnn2-c1ccccc1 (stereo not given),-2,-3,0,/,-9,-15,i,-6,
CCCc1cc(-c2nc(-c3ccc(C)cc3)cs2)ccn1,-9,-11,-11,-21,4,101*,i,/,
COc1ccc2c(c1)Cc1sc(NC(=O)c3cccnc3)nc1-2,2,-6,4,-33,47,-8,i,/,
COc1ccc(C(C(=O)NC2CCCC2)N(C(=O)c2snc(-c3ccc(F)cc3)c2N)c2ccc(F)cc2)cc1 (stereo not given),-1,0,5,-52,0,14,i,-16,
Cc1csc2ncc(C(=O)NCc3ccc4c(c3)OCO4)c(=O)n12,/,/,1,/,-3,-2,i,/,
COC(=O)c1cc(S(=O)(=O)N(C)C2CCCCC2)cn1C,1,3,/,3,/,-9,i,-19,
NC(=O)c1ccc(N2CCCC2)nc1,5,7,/,-7,/,/,/,95,
COc1cccc(Oc2coc3c(CN4CCOCC4)c(O)ccc3c2=O)c1,2,1,-7,/,-4,-9,i,-21,
CCC(=O)Nc1ccc(N2CCOCC2)c(S(=O)(=O)Nc2ccc(OC)cc2)c1,0,2,9,-4,14,-1,/,/,
CCN(CC(=O)NC1CCS(=O)(=O)C1)S(=O)(=O)c1cc(C)ccc1C (stereo not given),-4,2,/,2,/,-12,i,/,
CCOc1cc(/C=C(/C#N)C(=O)Nc2ccc(OC)cc2)ccc1OCc1ccc(C(=O)O)cc1,-1,-7,79,3,-6,/,i,-19,eIF4H FP inh retest=-7;PABP polyA inh retest=15
Cc1cc(NC(=O)C2CC(c3ccc(F)cc3)=NO2)n(-c2ccccc2)n1 (stereo not given),0,-9,-2,14,-3,-6,i,-4,
Cc1cc2c(cc1S(=O)(=O)NCc1ccccc1Cl)OCCN2C,-4,1,4,11,-7,-1,i,-6,
COc1ccc(C(=O)Nc2nc3ccccc3s2)c(OC)c1,-2,-2,-5,79*,-15,68,i,-92,
COc1ccc(C(=O)NNC(=O)CSc2nnc(COc3ccc4ccccc4c3)n2C)cc1,-1,8,-18,-30,-9,1,i,-21,
COc1ccc(NS(=O)(=O)c2ccc(Cl)c(NC(=O)c3ccccc3F)c2)cc1,0,-16,/,20,/,22,/,-3,
O=C(/C=C/c1ccc2c(c1)OCCCO2)c1ccc2ccccc2c1O,2,2,-3,-63,-6,95*,i,-10,
O=C1c2ccccc2C(=O)N1c1cccc(-c2nc3ccccc3o2)c1,-26,-4,-7,/,4,/,i,4,
CCN(CC)S(=O)(=O)c1ccc(NC2c3ccccc3C(=O)N2Cc2ccc3c(c2)OCO3)cc1 (stereo not given),-2,-8,-8,67*,1,12,i,-2,
COC(=O)CN1C(=O)C(O)(CC(=O)c2ccc(C)cc2)c2cc(Br)ccc21 (stereo not given),-3,4,-5,5,-6,-4,i,1,
COCCNC(C)C(=O)Nc1ccc(Br)cc1 (stereo not given),3,1,-4,-111,20,17,i,-14,
COc1ccc(NC(=O)CN(c2ccccc2)S(=O)(=O)c2ccccc2)c(OC)c1,-3,-3,0,7,6,7,i,-15,
Cc1ncc(CN2CCC(C(=O)Nc3cccc(-c4cscn4)c3)CC2)cn1,4,-7,-15,-15,-13,-11,i,-12,
CC(=O)Nc1ccc(-c2ccnc3c2CC(C(=O)Nc2cccc(C(F)(F)F)c2)O3)cc1 (stereo not given),-8,-16,/,-61,/,/,/,-2,
Cc1ccc(-c2cc(-c3ccc(C)o3)nc(N)c2C#N)cc1,-14,6,?,/,?,2,i,/,
CCOC(=O)C1=C(N)Oc2cc(O)ccc2C1c1ccc(F)cc1F (stereo not given),-3,-4,0,-10,4,-7,i,0,
COc1ccc(N2C(=O)C3C(C2=O)C3(c2ccccc2)c2ccccc2)cc1 (stereo not given),1,-5,-12,-5,-4,2,i,/,
N#CC1=C(N)N2C(=C(C#N)C13CCN(Cc1ccccc1)CC3)Nc1ccccc12,-13,-2,9,/,-10,-7,i,-21,
CCN(CC(=O)NC1CCS(=O)(=O)C1)C(=O)C(c1ccccc1)c1ccccc1 (stereo not given),0,4,-1,-36,7,-6,i,4,
CS(=O)(=O)N(CC(=O)NCc1ccccc1)c1ccc(Cl)cc1,3,1,2,9,4,-2,i,6,
COC(=O)c1ccc(NC(=O)c2ccccc2NS(=O)(=O)c2ccccc2)cc1,-9,-22,9,/,2,52,i,-2,
O=C1CN(C(=O)COC(=O)CCCOc2ccccc2)c2ccccc2N1,-3,5,2,-6,15,-22,/,-9,
COc1cccc(OC)c1C(=O)Nc1ccc(N2CCN(C(=O)c3ccco3)CC2)cc1,0,0,0,-3,10,18,i,-4,
CN(Cc1ccccc1)C(=S)NC(=O)c1cccs1,3,2,4,-291,3,5,i,-29,
CC(=O)C[C@@H](O)CC(=O)[C@H]1OC(=O)CC/C=C\Cc2ccccc21,-4,3,/,20,/,16,/,-17,
O=S1(=O)N=C2CCCN2C(c2ccc(F)cc2)N1 (stereo not given),1,8,-5,-22,1,-7,i,-14,
COc1cccc(CNC(=O)CCn2ccc3cc(S(=O)(=O)N4CCC(C)CC4)ccc32)c1,4,-3,-9,0,-2,10,i,-2,
Cc1cc(C)cc(-n2nnc3ccccc3c2=O)c1,4,9,/,2,/,/,/,-20,
COc1cc(C(=O)OCC(=O)Nc2sccc2C(N)=O)cc(OC)c1OC,-10,-13,15,14,-3,61,i,/,
Nc1cc(Cc2ccccc2)ccc1O,-8,-3,/,-15,/,/,/,-17,
Cc1ccccc1CSc1nnc(NC(=O)C2COc3ccccc3O2)s1 (stereo not given),0,1,2,-20,-7,/,i,-12,
COc1ccc(NC(=O)N(C)C[C@H]2Oc3c(NC(=O)c4ccncc4)cccc3C(=O)N([C@H](C)CO)C[C@@H]2C)cc1,1,2,/,-23[16.7 µM],/,/,/,-7&-14,
O=C(Cc1ccccc1F)Nc1nc2ccccc2[nH]1,2,1,-6,1,-2,4,i,/,
Cc1ccc(C)c(S(=O)(=O)Nc2ccc(C(=O)NCC(c3ccco3)N3CCCCC3)cc2)c1 (stereo not given),5,0,2,/,0,-2,i,-24,
COc1ccc(CC(=O)Nc2cccc3ncccc23)cc1OC,0,2,10,-1,6,-6,i,/,
CC(NC(=O)COc1ccc(/C=N/NC(=O)CO)cc1)c1ccccc1 (stereo not given),1,3,-4,10,1,-15,i,-8,
COc1ccc(CCC(=O)Nc2ccc3c(c2)OCO3)cc1,0,2,-11,10,-1,8,i,-20,
CC(C)C1Cc2[nH]c(=O)c(C(=O)O)cc2CO1 (stereo not given),0,-2,-4,-8,16,7,i,1,
Cc1cc(O)ccc1NC1=CC(=O)CC(C)(C)C1,0,4,3,7,0,9,i,/,
O=C(O)c1cccc(N2CCCCS2(=O)=O)c1,-5,3,9,/,7,/,i,-2,
CCC(=O)Nc1ccc(C(=O)OCC(=O)c2ccc(C)c([N+](=O)[O-])c2)cc1,6,3,-9,24,2,-20,i,-18,
COc1cccc2cc(C(C)N(CCCN3CCOCC3)C(=S)Nc3cc(C)ccc3C)oc12 (stereo not given),-1,0,-7,7,0,0,i,-11,
CCOC(=O)c1sc(NC(=O)CSc2nc(C)cc(C)c2C#N)c(C#N)c1C,-19,-16,0,-5,5,-3,i,-7,
Cc1cc(C)nc(NN2C(=O)C=CC2=O)n1,-1,0,-6,/,-8,/,i,-13,
O=C(O/N=C(/c1ccccc1)c1ccncc1)c1ccccc1[N+](=O)[O-],-4,4,4,1,4,-6,i,-7,
O=S(=O)(c1cccc(Cl)c1)N1CCN(S(=O)(=O)c2ccc3c(c2)OCCO3)CC1,-4,4,/,13,/,2,/,-13,

# 2 successive entries already listed, quoted:
SMILES,MT1-MMP act inh,MT1-MMP act inh RFP,eIF4H FP inh,Env fusion inh,PABP polyA inh,CSC inhib,Rce1 inh,Yeast UUG start,others
COc1cccc(CNC(=O)CCn2ccc3cc(S(=O)(=O)N4CCC(C)CC4)ccc32)c1,4,-3,-9,0,-2,10,i,-2,
Cc1cc(C)cc(-n2nnc3ccccc3c2=O)c1,4,9,/,2,/,/,/,-20,

# Additional records:
SMILES,MT1-MMP act inh,MT1-MMP act inh RFP,eIF4H FP inh,Env fusion inh,PABP polyA inh,CSC inhib,Rce1 inh,Yeast UUG start,others
CN(C)c1ncc(CN2CCC(C(=O)Nc3ccc(-n4cccn4)cc3)CC2)s1,-2,1,-5,/,6,-10,i,-9,
CCN1CCN(C(=O)c2cc3c(-c4ccc(Cl)cc4)nn(C)c3s2)CC1,-2,3,-11,-25,-1,11,i,8,
O=C(O)Cn1c(=O)c2cccn2c2ccccc21,5,6,-2,6,3,-9,i,-8,
CC(=O)Oc1ccc2c(=O)c(Oc3ccccc3)coc2c1OC(C)=O,-6,-8,98*,9,2.0*,22,i,-7,eIF4H FP inh retest=75*;PABP polyA inh retest=52*
CCN(CC)S(=O)(=O)c1ccc(N2CCN(C)CC2)c(NC(=O)Nc2ccccc2F)c1,1,3,-17,-17,6,2,i,13,
COc1ccc(NC(=S)N(CCCN2CCN(C)CC2)Cc2cccs2)cc1,-2,2,-7,-43,5,-4,i,-25,
Cc1ccc(-c2cc(-c3ccc(F)cc3)n[nH]2)c(O)c1,5,1,-5,i,0,1,i,-32,
CCN(CC)S(=O)(=O)c1ccc(NC(=O)C2CCCN(C(=O)c3ccc(Cl)cc3)C2)cc1 (stereo not given),7,-13,-2,/,6,23,i,-4,
CC1CC(=O)Nc2ccccc2N1S(=O)(=O)c1ccc(C#N)cc1 (stereo not given),-1,7,-2,-3,10,-9,i,/,
O=C(Nc1cccc2ccccc12)c1ccc2sc([C@@H]3O[C@H](CO)[C@H](O)[C@H](O)[C@H]3O)nc2c1,2,3,/,6,/,/,/,-8,
COc1ccc(C(=O)NC(=O)Nc2ncccc2C)cc1,-1,5,-3,-46,-4,-2,i,-11,
CC(C)(C)NC(=O)C1CCN(S(=O)(=O)c2cccc(C(F)(F)F)c2)CC1,1,-1,-1,12,5,4,i,-6,
COc1cc(NC(=O)c2csc3c2CCCC3)ncn1,0,-1,6,/,3,9,i,-14,
COc1ccc(CC(NC(C)=O)C(=O)NC2CCN(C(=O)c3ccc(OC)c(OC)c3)CC2)cc1OC (stereo not given),3,4,-4,5,1,-7,i,/,
CC(=O)N1CCc2cc(S(=O)(=O)CCC(=O)NCc3ccc(C)o3)ccc21,-7,0,-4,-6,10,-6,i,-7,
Cc1c(/C=C/C(=O)c2ccc(C(C)C)cc2)cnn1C,-5,-23,-3,10,9,8,i,/,
C[C@@H]1CN([C@H](C)CO)S(=O)(=O)c2ccc(Br)cc2O[C@@H]1CN(C)Cc1ccc(C(=O)O)cc1,-4,2,/,-5,/,/,/,-20,
O=C(CSc1ccc(Cl)cc1)Nc1ccc(N2CCN(C(=O)c3ccco3)CC2)cc1,5,-9,0,/,-5,21,i,8,
COCCn1c(N)c(S(=O)(=O)c2cccs2)c2nc3ccccc3nc21,0,-1,-7,/,3,-14,i,-10,
